From PubChem
RE007 growth inh = qHTS Assay for Inhibitors of the HIV-1 protein Vpr | 360,000 tested, 0.21% active | S. pombe RE007 Vpr strain, BacTiter-Glo ATP luminescence, 24 h; control for the full effect not named in the record | Potency, µM (top dose mostly 92.2 µM), inactives show at the highest dose activity change, negative = less growth | AID 651644, 2012; active = well fitted falling curve with a large enough effect; inconclusive = small, poorly fitted or top-dose-only effect; inactive = no such curve, though single readings can be large or run the other way;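 further: on the % scale 0 is the no-effect control and ±100 the full control effect; nearly all actives have a fitted effect of over 50% in size; the assay follows cell death caused by Vpr and the record does not say whether a fall means rescue or toxicity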
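Fission yeast strain RE007, carrying one chromosomally integrated HIV-1 vpr copy, was seeded at OD 0.01 in PMG+AL medium with 23 nL pinned compound. After 24 h at 30 °C and 99% humidity, viability was read by BacTiter-Glo luminescence.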
SARS PLpro yeast = qHTS of Yeast-based Assay for SARS-CoV PLP | S. cerevisiae expressing SARS-CoV PLpro, growth rescue; control for the full effect not named in the record | Potency, µM (top dose mostly 32.9 µM), for the others: at the top dose activity, positive = growth rescue | 330,000 tested, 0.19% active | AID 485353, 2010; active means well fitted rising curve with a large enough effect; inconclusive means small, poorly fitted or top-dose-only effect; inactive means no such curve, though single readings can be large or run the other way; further: 0% is about no effect; nearly all actives have a fitted effect of over 55% in size; growth read by luminescence after 48 h
Cruzain Triton = qHTS Assay for Promiscuous and Specific Inhibitors of Cruzain (with detergent) | 200,000 tested, 0.43% active | Potency, µM, for inactives: max response, negative = inhibition, usual class: inhibitors | purified cruzain, Z-FR-AMC fluorescence, 0.01% Triton | Cruzipain (Trypanosoma cruzi), P25779 | AID 1478, 2009;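 further: plate controls were neutral wells for no effect and buffer without enzyme for full effect; nearly all actives have a fitted effect of over 40% in size; top concentration of the series not given in the record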
Target sequence (P25779 123-467 limits assumed): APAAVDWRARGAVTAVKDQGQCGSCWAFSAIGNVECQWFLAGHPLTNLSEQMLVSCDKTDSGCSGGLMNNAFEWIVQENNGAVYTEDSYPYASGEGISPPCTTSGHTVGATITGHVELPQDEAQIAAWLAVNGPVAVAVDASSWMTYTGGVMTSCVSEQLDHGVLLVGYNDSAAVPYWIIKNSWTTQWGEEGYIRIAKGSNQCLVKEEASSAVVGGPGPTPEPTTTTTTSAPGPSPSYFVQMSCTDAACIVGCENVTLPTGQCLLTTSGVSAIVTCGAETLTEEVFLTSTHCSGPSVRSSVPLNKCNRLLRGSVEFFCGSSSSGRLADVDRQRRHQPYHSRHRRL
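Cysteine protease activity tested under reducing, mildly acidic conditions (100 mM sodium acetate pH 5.5, 5 mM DTT) plus 0.01% Triton X-100. Cruzain 1.5 nM; substrate Z-FR-AMC 2 uM; 15 min compound preincubation at room temperature.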
2A StopGo = High Throughput Screening for Foot and Mouth Disease Virus Antivirals | human cells with a luciferase reporter of 2A StopGo recoding; control for the full effect not named in the record | AID 1159524, 2015 | Potency, µM (highest dose often 57.9 µM), for inactives: at the top dose signal change, negative = less light | 410,000 tested, 1.2% active; active = well fitted falling curve with a large enough effect; inconclusive = small, poorly fitted or top-dose-only effect; inactive = no such curve, though single readings can be large or run the other way; tested in HEK293T cells; further: on the % scale 0 is the no-effect control and ±100 the full control effect; nearly all actives have a fitted effect of over 45% in size; luciferase light after 4 h
Lassa entry inh = qHTS for Inhibitors of binding or entry into cells for Lassa Virus | Lassa virus pseudotype entry inhibition, cell reporter; control for the full effect not named in the record | Potency, µM (series often up to 37.9 µM), inactives show at the highest dose activity change, negative = inhibition, most hits filed as inhibitors | 300,000 tested, 1.2% active | AID 540256, 2011; active means well fitted inhibition curve with a large enough effect; inconclusive means small, poorly fitted or top-dose-only effect, or effect the other way; inactive means flat fitted curve, though single readings scatter; tested in HEK293 cells; further: on the % scale 0 is the no-effect control and ±100 the full control effect; nearly all actives have a fitted effect of over 50% in size; luciferase read-out
Cruzain noTriton = qHTS Assay for Promiscuous and Specific Inhibitors of Cruzain (without detergent); Cruzipain (Trypanosoma cruzi), P25779; purified cruzain, Z-FR-AMC fluorescence, no detergent; Potency, µM, inactives show max response, negative = inhibition, hits mostly inhibitors; 200,000 tested, 2.3% active;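 further: plate controls were enzyme without inhibitor for no effect and buffer without enzyme for full effect; nearly all actives have a fitted effect of over 40% in size; top concentration of the series not given in the record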
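Detergent-free condition (0.00005% Triton X-100) in acetate buffer pH 5.5 with DTT. 1.5 nM enzyme and compound were pre-mixed 15 min, then 2 uM Z-FR-AMC substrate added; reaction progress from fluorescence change between first and third reads (60 s).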
Marburg entry inh = qHTS for inhibitors of binding or entry into cells for Marburg Virus; Marburg virus pseudotyped entry inhibition, cell reporter; control for the full effect not named in the record; about a third of the inactives were read at about 46 µM; Potency, µM (highest dose often 37.8 µM), for inactives: at the top dose activity change, negative = inhibition, hits mostly inhibitors; 300,000 tested, 1.8% active; active = well fitted inhibition curve with a large enough effect; inconclusive = small, poorly fitted or top-dose-only effect, or effect the other way; inactive = flat fitted curve, though single readings scatter; tested in HEK293 cells; about a fifth of its hits are not listed in these tables; further: on the % scale 0 is the no-effect control and ±100 the full control effect; luciferase read-out
NS1 inh = qHTS Assay for Inhibitors of Influenza NS1 Protein Function; Potency, µM (top dose mostly 46.1 µM), for inactives: at the highest dose activity, positive = more growth; S. cerevisiae slowed by influenza A NS1, growth recovery by OD600; 270,000 tested, 0.4% active; active means well fitted rising curve with a large enough effect; inconclusive means small, poorly fitted or top-dose-only effect; inactive means no such curve, though single readings can be large or run the other way; further: nearly all actives have a fitted effect of over 50% in size
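A cell-based growth assay was used: compounds that relieve NS1-induced slow growth of budding yeast raise OD600. Assay medium was yeast nitrogen base with ammonium sulphate and -URA supplement, pH 6.0, with 2% galactose.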
* hit, by the source's call; ? = inconclusive; . = not tested or not shown; [ ] = dose if it differs, or a comment. Unless noted, the call rests on the fitted dose curve; in most records, active means well fitted curve in the direction sought with a large enough effect; inconclusive means small, poorly fitted or top-dose-only effect, or another doubt; inactive means no such curve, though single readings can be large; an effect the other way counts as inactive or inconclusive. Potency means the concentration at half of the fitted maximal effect. This is a random part of the collection. Share with any hit: about 4.7%.

SMILES	RE007 growth inh	SARS PLpro yeast	Cruzain Triton	2A StopGo	Lassa entry inh	Cruzain noTriton	Marburg entry inh	NS1 inh
CC(C)[C@H](NC(=O)NCc1ccco1)C(=O)O	2.6%	11.3%	5.0%	3.7%	0.2%	1.5%	-0.9%	0.1%
Cn1cc(Cl)c(C(=O)N(Cc2ccccc2)c2ccccn2)n1	-2.9%	1.6%	0.0%	-18.7%	.	-8.1%	.	9.2%
Cc1ccc(C(=O)Cn2nc(C(=O)O)c3ccccc3c2=O)cc1C	-9.1%	-0.7%	.	24.5%	.	.	.	1.4%
O=C(NN(C(=O)c1ccccc1)c1ccccc1)c1ccccc1	17.4%	0.2%	.	-13.0%	3.6%	.	5.9%[46.1 µM]	4.8%
Cc1cccnc1NC(=O)Cn1c(=O)oc2ccccc21	9.8%	0.3%	.	?	.	.	.	-14.3%
CCOc1ccc(-c2cc3nc(C4CCN(C(=O)OC(C)(C)C)CC4)c(C(=O)Nc4c(C)cccc4C)cn3n2)cc1	.	.	-9.2%	-5.7%	-3.8%[46.1 µM]	-20.5%	7.08µM*	.
CC(=O)Nc1ccc(-c2ccc3nnc(C)n3n2)cc1	-6.4%	2.3%	.	3.6%	-0.6%[46.1 µM]	.	?	.
Cc1ccccc1-c1nnc(SCC(=O)N(CC(C)C)c2c(N)n(CC(C)C)c(=O)[nH]c2=O)n1C	0.5%	0.6%	.	-4.0%	-6.2%	.	4.6%[46.1 µM]	6.2%
C#CCOCCOCCOCCNc1nc(N2CCOCC2)nc(N2CCN(C(=O)[C@H](CCCCN)n3cc([C@@H](N)CO)nn3)CC2)n1	-7.0%	-1.0%	.	-13.2%	.	.	.	6.0%
O=C1C2C3C=CC(C3)C2C(=O)N1c1ccc(-c2nc3ccccc3c(=O)o2)cc1 (configuration not stated)	-3.2%	7.9%	.	-7.4%	.	.	.	7.9%
O=C(CN1CCOCC1)Nc1ccc(S(=O)(=O)N2CCCCCC2)cc1	6.2%	-1.5%	-0.5%	6.5%	-1.9%	-18.0%	10.1%	-5.5%
COc1ccc2c(c1)SCC(=O)N2C	1.3%	-2.6%	-0.5%	4.9%	-15.5%	26.2%	-6.2%	18.6%
O=C1N(Cc2ccccc2Cl)c2ccccc2C1(O)c1c[nH]c2ccccc12 (configuration not stated)	.	.	-13.2%	-21.2%	-21.1%[46.1 µM]	?	3.4%[46.1 µM]	.
CC1CCCCC1NC(=O)c1ccc(CNc2c(N3CCCC3)c(=O)c2=O)cc1 (configuration not stated)	-4.7%	-3.2%	-0.4%	0.0%	.	-5.7%	.	-6.8%
COc1ccccc1CC(=O)Nc1cc(OC)c(NC(=O)c2ccccc2)cc1OC	-0.5%	.	.	-8.3%	?	.	0.6%[46.1 µM]	?
CCc1ccc(CNC(=O)CSc2cc(=O)n(CC)c3ccccc23)cc1	.	.	0.6%	-8.7%	-17.6%[46.1 µM]	14.7%	7.7%[46.1 µM]	.
Cc1ccc(/C=C/c2nc3ccccc3n2S(=O)(=O)c2cccc(Cl)c2)cc1	.	.	-8.1%	-95.6%	?	-9.2%	.	.
CC(=O)Nc1cccc(OCc2c(F)cccc2Cl)c1	2.4%	-4.3%	.	-9.6%	-24.4%[46.1 µM]	.	-12.1%[46.1 µM]	-37.8%
O=C(CSc1nc2cc(Cl)ccc2s1)NC(=O)NCc1ccco1	11.6%	2.0%	2.4%	.	2.6%	-22.5%	-12.3%	2.6%
CSCCOC(=O)C1=C(C)NC(=O)NC1c1ccc2c(c1)OCO2 (configuration not stated)	22.5%	5.8%	.	-2.9%	.	.	.	23.5%
O=C(c1cccc(Cl)c1)N1c2ncnn2C2(CCCCC2)[C@@H]2CCCC[C@@H]21	.	.	0.6%	?	0.3%[46.1 µM]	4.2%	?	.
CN(C)c1ccc(/C=N/NC(=O)C2CC2c2ccccc2)cc1 (configuration not stated)	6.1%	-0.7%	.	12.2%	.	.	.	-4.5%
COc1ccc(-n2ccc3ccccc32)cc1	1.2%	0.2%	.	30.7%[activator]	.	.	.	-2.4%
CC1CCCC(CC(=O)O)(CC(=O)O)C1 (configuration not stated)	-12.6%	1.4%	.	-13.1%	7.1%[46.1 µM]	.	-2.6%[46.1 µM]	?
CCOc1ccc(NC(=O)CC2C(=O)N(c3cccc(OC)c3)C(=O)N2C2CCCCC2)cc1 (configuration not stated)	.	.	-4.8%	-13.3%	?	6.6%	-3.6%[46.1 µM]	.
Cc1cccc(C)c1N1C(=O)c2ccccc2C1=O	8.9%	6.7%	3.1%	.	-2.5%	2.0%	-11.7%	12.1%
CCOC(=O)c1sc(N2C(=O)C(O)=C(C(=O)c3ccco3)C2c2ccc(C)o2)nc1C (configuration not stated)	-12.0%	-1.8%	.	9.9%	4.2%[46.1 µM]	.	-4.2%[46.1 µM]	13.6%
CCn1c(SCC(=O)Nc2cccc(NC(=O)c3cccs3)c2)nnc1-c1ccncc1	-1.1%	?	4.9%	?	-0.5%	-2.2%	?	-0.1%
Nc1nc(NCc2ccco2)nc(N2CCN(Cc3ccccc3)CC2)c1[N+](=O)[O-]	-7.8%	0.4%	.	-16.0%	?	.	-27.3%[46.1 µM]	-1.3%
Cc1ccc(S(=O)(=O)N(CC(=O)N2CCC(C)CC2)c2ccccc2)cc1	10.3%	-1.2%	.	32.7%[activator]	-19.4%	.	-19.8%[46.1 µM]	6.9%
O=C(Nc1nc2c(Cl)ccc(Cl)c2s1)c1ccco1	-2.5%	-7.1%	-3.1%	-2.8%	.	-17.2%	.	-9.3%
CCCCNC(=O)c1c[nH]c2ccc(S(=O)(=O)N3CCOCC3)cc2c1=O	-7.1%	-2.7%	.	-12.9%	-8.0%	.	-4.4%[46.1 µM]	.
O=C(NCC1CCCO1)c1ccc(NC(=O)c2cc(F)c(F)cc2Cl)cc1 (configuration not stated)	-2.7%	1.4%	.	-6.6%	.	.	.	10.8%
CC(=O)c1ccc(NC(=O)CN(c2c(C)cccc2C)S(C)(=O)=O)cc1	7.2%	-6.0%	.	58.3%[activator]	.	.	.	4.0%
CC1CCN(C2=NC(=O)/C(=C/c3cn[nH]c3-c3ccccc3)S2)CC1	8.3%	0.6%	-12.7%	0.0%	-5.5%	-18.5%	?	5.0%
CCN(C(=O)Cn1c([N+](=O)[O-])cnc1C)c1ccccc1	-6.2%	?	.	1.1%	.	.	.	2.6%
CCOCCOc1cccc(C(=O)NC(c2ccccc2)C(C)C)c1 (configuration not stated)	14.6%	-0.9%	.	-2.1%	.	.	.	-3.2%
O=C(COc1ncnc2cc([N+](=O)[O-])ccc12)NCc1ccc2c(c1)OCO2	14.7%	-3.1%	-3.5%	-11.0%	0.7%	-19.0%	-5.1%[46.1 µM]	5.1%
CCOC(=O)C1=C(CP(=O)(c2ccccc2)c2ccccc2)NC(=O)NC1c1ccc(Cl)cc1 (configuration not stated)	-6.8%	0.4%	-5.7%	-24.3%	-12.0%	?	-27.5%	-4.0%
COc1ccc(NC(=O)Cn2nnc(-c3ccccc3F)n2)cc1	10.0%	0.0%	1.9%	16.0%	1.3%	-12.0%	?	8.5%
Cc1cccc(N2CCN(C(=O)c3cccs3)CC2)c1C	-13.7%	-6.6%	.	-15.6%	?	.	-10.1%	-54.4%
COC(=O)C1=C(C(=O)c2ccc(C)cc2)C(c2ccc(O)c(OC)c2)n2nnnc2N1 (configuration not stated)	-9.7%	-3.5%	-2.4%	-10.3%	1.1%	-7.0%	3.4%	10.4%
O=C(c1ccccn1)N1N=C2/C(=C/c3ccc(F)cc3)CCCC2C1c1ccc(F)cc1 (configuration not stated)	-15.9%	-18.0%	-3.8%	0.0%	-8.3%	14.8%	?	3.5%
CC(C)C1Oc2ccccc2N(CC(=O)N2CCOCC2)C1=O (configuration not stated)	-1.6%	4.1%	.	0.0%	1.4%	.	5.0%[46.1 µM]	1.6%
C/C(=N\NC(=O)c1cc(-c2ccc(C)s2)[nH]n1)c1ccncc1	2.1%	-8.2%	.	35.0%[activator]	6.9%[46.1 µM]	.	?	0.9%
CC(=O)Nc1sc2c(c1CN1CCN(c3ccccn3)CC1)CCCC2	-8.5%	-1.5%	2.9%	?	-10.3%	4.2%	?	-17.1%
COc1cc(NC(=O)c2cccc(C)c2)c(OC)cc1NC(=O)CN1CCCCC1	-5.7%	-1.0%	.	-24.2%	?	.	-24.3%[46.1 µM]	1.4%
COc1ccc(C2=NOC3(CC(=O)N(c4ccc(F)cc4)C3=O)C2)c(OC)c1 (configuration not stated)	13.4%	-7.9%	-3.8%	16.9%	1.5%	?	5.9%	4.8%
O=C(c1ccccc1)c1ccc2ccccc2c1	-26.5%	.	.	29.7%	2.6%[46.1 µM]	.	5.8%[46.1 µM]	.
CCN(C(=O)COC(=O)c1cccc(-n2cnnn2)c1)C1CCCCC1	-2.9%	-0.2%	.	-15.4%	7.7%	.	20.3%	.
CN(c1ccccc1)S(=O)(=O)c1cc(C(=O)N2CCN(c3ccccn3)CC2)ccc1Cl	-26.4%	-3.4%	1.9%	12.6µM*	?	8.5%	?	-63.9%
Cc1nn(Cc2ccc(C(=O)NC3CCCCC3)o2)c(C)c1Br	15.2%	-5.2%	-3.4%	.	?	?	?	-14.5%
O=c1nc(C(F)(F)F)nc2ccccn12	-4.1%	-0.2%	2.6%	8.9%	1.7%	-4.1%	21.1%	?
O=C(NNc1nc2ccccc2s1)Nc1ccccc1	-22.6%	-15.5%	0.9%	36.6%[activator]	?	?	?	9.1%
